Env fusion inh: inhibitors of HIV-1 Env-driven cell-cell fusion, primary screen, HeLa-JRFL effector, CEM21 target cells, luciferase; inhibition, % at 12.3 µM; 360,000 tested, 1.1% active; AID 651610, 2012;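 active means mean replicate inhibition score of at least 50 and every replicate individually at or above 50; inconclusive means only one of the two criteria met; inactive means mean below 50 and not all replicates reaching 50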;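 further: 0% = plate neutral controls and 100% = maraviroc near 300 nM; one replicate is shown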
An asterisk follows results filed as active; ? = inconclusive; & = joins results of further samples; [ ] = remark or other dose.

SMILES	Env fusion inh
COc1cccc(S(=O)(=O)Nc2ccc3c(c2)[C@H]2C[C@H](CC(=O)NCc4ccc(Cl)cc4)O[C@@H](CO)[C@H]2O3)c1	57*[16.7 µM]
O=C(Nc1cccc(F)c1)N[C@@H]1CC[C@@H](CCNS(=O)(=O)c2cccc(Cl)c2)O[C@@H]1CO	4[16.7 µM]
CS(=O)(=O)Nc1ccc2c(c1)[C@@H]1C[C@H](CC(=O)NCCc3ccccc3)O[C@H](CO)[C@@H]1O2	-10[16.7 µM]
COC(=O)c1cc2c(c3c4cc(C)ccc4n(S(=O)(=O)c4ccc(C)cc4)c13)C(=O)N(Cc1ccc(N(C)C)cc1)C2	-5
C[C@H]1CCCCO[C@@H](CN(C)C)[C@@H](C)CN([C@@H](C)CO)C(=O)c2cc(NC(=O)Nc3ccc4c(c3)OCO4)ccc2O1	27[16.7 µM]
O=C(Cn1nnc(N2CCCCC2)n1)NN=Cc1ccccc1O	-3
CO[C@H]1CN(C)C(=O)c2ccc(NC(=O)C3CC3)cc2OC[C@H](C)N(C(=O)c2ccccn2)C[C@H]1C	-5[16.7 µM]
C[C@@H]1ON(C)[C@H]2C[C@H]3c4[nH]c5cccc(-c6ccccc6F)c5c4CCN3C(=O)[C@@H]12	-36
Cc1cccc(C(O)c2ncc(-c3ccc(C(F)(F)F)cc3)[nH]2)c1C (stereo not drawn)	13
CCOC(=O)N[C@@H](Cc1cccnc1)C(=O)N1CCC[C@H]1C(=O)NCCc1ccccc1Cl	14

Continued (2 carried over from the part before).
SMILES	Env fusion inh
Cc1cccc(C(O)c2ncc(-c3ccc(C(F)(F)F)cc3)[nH]2)c1C (stereo not drawn)	13
CCOC(=O)N[C@@H](Cc1cccnc1)C(=O)N1CCC[C@H]1C(=O)NCCc1ccccc1Cl	14
COc1cccc(S(=O)(=O)Nc2ccc3c(c2)OC[C@H](C)N(Cc2ccccc2F)C[C@H](C)[C@H](OC)CN(C)C3=O)c1	31[16.7 µM]
CC(C)NC(=O)N(C)C[C@H]1OCCCC[C@@H](C)Oc2ccc(NC(=O)c3ccccc3)cc2C(=O)N([C@@H](C)CO)C[C@H]1C	3[16.7 µM]
C[C@H](CO)N1C[C@H](C)[C@H](CN(C)S(=O)(=O)c2cccs2)OCc2ccccc2-c2ccccc2C1=O	44[16.7 µM]
CO[C@@H]1CN(C)C(=O)c2cc(NC(=O)NC(C)C)ccc2OC[C@@H](C)N(CCC(F)(F)F)C[C@H]1C	-4[16.7 µM]
CO[C@H](CN(C)Cc1cc(F)ccc1F)[C@H](C)CN([C@H](C)CO)S(=O)(=O)c1ccc(F)cc1	43[16.7 µM]
Cc1ccc(NC(=O)NCc2ccco2)cc1[N+](=O)[O-]	-44
O=C(C[C@H]1C[C@@H]2c3cc(NC(=O)C4CCOCC4)ccc3O[C@@H]2[C@H](CO)O1)NCc1ccc(Oc2ccccc2)cc1	5[16.7 µM]
CCN=C1NC(c2ccc(F)cc2)C(C(=O)OC)=C(C)N1Cc1ccc(C(F)(F)F)cc1 (stereo not drawn)	-80
O=C(C[C@H]1CC[C@@H]2[C@H](COC[C@H](O)CN2Cc2cc(F)ccc2F)O1)N[C@H]1CCN(Cc2ccccc2)C1	-8[16.7 µM]
Cc1cccc(S(=O)(=O)N[C@@H]2CC[C@@H](CCNC(=O)c3cnccn3)O[C@@H]2CO)c1	7[16.7 µM]
COc1ccc(S(=O)(=O)N(C)C[C@H]2OCCCC[C@H](C)Oc3ccc(N(C)C)cc3C(=O)N([C@@H](C)CO)C[C@H]2C)cc1	1[16.7 µM]
COc1cccc(CNC(=O)[C@H]2CCCN2C(=O)[C@H]2CCCN2C(=O)c2ccc(C)c(C)c2)c1	-10
O=C(NCC1CCN(C(=O)C(=O)c2cccs2)CC1)c1ccncc1	-2
CO[C@H]1CN(C)C(=O)c2cccc(C#N)c2OC[C@H]2O[C@@H](CC[C@@H]2OC)CCN(C)C(=O)[C@H]1C	14[16.7 µM]
O=C(C[C@H]1CC[C@H](NC(=O)C2CCC2)[C@H](CO)O1)NCC1CC1	-9[16.7 µM]
CCCNC(=O)Nc1ccc2c(c1)OC[C@H](C)N(Cc1cccnc1)C[C@@H](C)[C@H](OC)CN(C)C2=O	-6[16.7 µM]
CS(=O)(=O)N1[C@@H]2c3ccc(-c4ccc(F)cc4)c(=O)n3C[C@@H]2[C@@H](CO)[C@@H]1C(=O)O	-4[16.7 µM]
O=C(C(=O)N1CCC(CNS(=O)(=O)Cc2ccccc2)CC1)c1cccs1	-11
Cc1[nH]c2ccccc2c1CC(=O)Nc1ccc(N(C)c2cccnc2)c(-c2ccc(F)c(F)c2)c1	-23
O=C(C[C@@H]1C[C@H]2c3cc(NC(=O)Cc4ccncc4)ccc3O[C@H]2[C@@H](CO)O1)NCCN1CCCCC1	3[16.7 µM]
CCCNC(=O)C[C@H]1CC[C@@H]2[C@H](COC[C@@H](O)CN2C(=O)Nc2ccc(Cl)c(Cl)c2)O1	16[16.7 µM]
CC(C)C[C@H]1COc2cccc(N3CCCCC3)c2S(=O)(=O)N1	28
COc1ccc(CN(C)C[C@@H]2Oc3ccc(NC(=O)Cn4cnnn4)cc3C(=O)N([C@H](C)CO)C[C@@H]2C)cc1	21[16.7 µM]
COc1ccc2c3c([nH]c2c1)[C@H](CO)N(C(=O)NC(C)C)CC31CCN(C(=O)c2cccnc2)CC1	-37[16.7 µM]
CC(C)NC(=O)Nc1ccc2c(c1)C(=O)N([C@H](C)CO)C[C@H](C)[C@@H](CN(C)C)O2	4[16.7 µM]
Nc1[nH]c(C(=O)c2ccccc2)c(-c2ccc(Cl)cc2F)c1C(=O)NCCc1c[nH]c2ccccc12	0
CO[C@@H]1CN(C)C(=O)c2ccc(NS(C)(=O)=O)cc2OC[C@@H](C)N(CC2CCCCC2)C[C@H]1C	-3[16.7 µM]
O=[N+]([O-])c1ccc2c(c1)CO[C@]21O[C@H](CCO)C[C@H](O)[C@H]1O	7
CN(C)c1ccc2c(c1)[C@@H]1C[C@@H](CC(=O)NCc3ccncc3)O[C@@H](CO)[C@@H]1O2	3[16.7 µM]
COc1cccc(-c2cccc(-c3nc(C(=O)NCC(F)(F)F)cc4c3[C@@H](CCO)N([S@](=O)C(C)(C)C)C4)c2)c1	-42[16.7 µM]
CCCN1C(=O)c2[nH]nc(-c3ccccc3)c2C1c1ccccc1 (stereo not drawn)	-23
O=C(C[C@H]1C[C@@H]2c3cc(NC(=O)C4CCOCC4)ccc3O[C@@H]2[C@@H](CO)O1)NCCN1CCCCC1	-7[16.7 µM]
Nc1[nH]c(C(=O)c2ccccc2)c(-c2ccccc2[N+](=O)[O-])c1C(=O)NCCc1c[nH]c2ccccc12	-8
CN1C(=O)c2cc(NC(=O)C3CCOCC3)ccc2OC[C@H]2O[C@H](CC(=O)NCC3CCCCC3)CC[C@@H]21	10[16.7 µM]
C[C@@H]1CN([C@@H](C)CO)C(=O)c2cc(NC(=O)CCC(F)(F)F)ccc2O[C@@H](C)CCCCO[C@@H]1CN(C)C	-9[16.7 µM]
Cc1cccc(CN2CCN(C3CN(Cc4cn(Cc5ccc(C(F)(F)F)cc5)nn4)S(=O)(=O)C3)CC2)c1 (stereo not drawn)	43
O=C(C[C@H]1CC[C@@H]2[C@H](COC[C@@H](O)CN2C(=O)c2cnccn2)O1)N1CCN(c2ccccc2)CC1	-19[16.7 µM]
CS(=O)(=O)Nc1ccc2c(c1)[C@H]1C[C@@H](CC(=O)NCCc3ccccc3)O[C@@H](CO)[C@H]1O2	40[16.7 µM]
C#CCN1CC(COc2ccccc2)OCCS1(=O)=O (stereo not drawn)	-13
CCCC(=O)Nc1ccc2c(c1)C(=O)N(C)C[C@@H](OC)[C@@H](C)CN(CCC(F)(F)F)[C@@H](C)CO2	-17[16.7 µM]
CO[C@H]1CN(C)C(=O)c2ccc(NC(=O)Nc3c(C)noc3C)cc2OC[C@@H](C)N(CC2CC2)C[C@H]1C	-12[16.7 µM]
O=C(NC[C@@H]1CC[C@H]2[C@H](CN2Cc2cc(-c3ccccc3)on2)O1)c1ccc2c(c1)OCO2	58*[16.7 µM]
CO[C@@H]1CN(C)C(=O)c2cc(NC(C)=O)ccc2OC[C@H](C)N(C(=O)c2cnccn2)C[C@@H]1C	?
COc1ccccc1CNC(=O)C[C@H]1CC[C@H]2[C@@H](COc3ccc(NS(=O)(=O)c4ccc(C)cc4)cc3C(=O)N2C)O1	-19[16.7 µM]
COCC(=O)Nc1ccc2c(c1)C(=O)N(C)C[C@H](OC)[C@@H](C)CN(Cc1ccccn1)[C@H](C)CO2	-10[16.7 µM]
CN1C(=O)c2cc(NC(=O)c3cccc(F)c3)ccc2OC[C@H]2O[C@H](CC(=O)NCC3CCCCC3)CC[C@H]21	41&24[16.7 µM]
C[C@H](CO)N1C[C@H](C)[C@H](CN(C)C(=O)C2CCC2)Oc2ncc(Br)cc2C1=O	2[16.7 µM]
CO[C@@H]1CN(C)C(=O)c2cc(NS(C)(=O)=O)ccc2OC[C@@H](C)N(Cc2cncnc2)C[C@@H]1C	15[16.7 µM]
COCC(=O)Nc1ccc2c(c1)[C@H]1C[C@@H](CC(=O)N[C@@H](C)c3ccccc3)O[C@@H](CO)[C@H]1O2	4[16.7 µM]
O=C(C[C@@H]1CC[C@H]2[C@@H](COC[C@H](O)CN2C(=O)Nc2ccc(Cl)cc2)O1)NCCc1ccncc1	-5[16.7 µM]
Later entries
SMILES	Env fusion inh
O=C(C[C@@H]1CC[C@@H]2[C@H](COC[C@@H](O)CN2C(=O)c2ccncc2)O1)NC1CCC1	-15[16.7 µM]
Cc1ccc(NC(=O)Nc2ccc3c(c2)C(=O)N(C)[C@@H]2CC[C@@H](CC(=O)NCC(F)(F)F)O[C@H]2CO3)cc1	6[16.7 µM]
Cc1cc(N2CCN(CC(C)(C)O)C[C@H]2C)ccc1N1CCN(CC(C)(C)O)[C@@H](C)C1	-6
C[C@@H]1COc2cc(NCCCN3CCOCC3)ccc2S(=O)(=O)N1	-20
CO[C@@H]1CN(C)C(=O)c2cc(NC(=O)c3cccc(F)c3)ccc2OC[C@@H](C)N(C)C[C@@H]1C	5[16.7 µM]
COc1ccc(NC(=O)N(C)C[C@@H]2Oc3cc(-c4cccc(C(=O)N(C)C)c4)ccc3S(=O)(=O)N([C@@H](C)CO)C[C@H]2C)cc1	-20[16.7 µM]
CO[C@H]1CN(C)C(=O)c2cc(NC(C)=O)ccc2OC[C@H](C)N(Cc2cccnc2)C[C@H]1C	-8[16.7 µM]
COC(=O)c1cc2c(c3c4cc(F)ccc4n(S(=O)(=O)c4ccc(C)cc4)c13)C(=O)N(Cc1ccccc1OC)C2	?
CCCNC(=O)Nc1ccc2c(c1)OC[C@H](C)N(C(C)=O)C[C@@H](C)[C@H](OC)CN(C)C2=O	9[16.7 µM]
C[C@H](CO)N1C[C@H](C)[C@H](CN(C)C(=O)Nc2cccc3ccccc23)Oc2ccc(NC(=O)C3CC3)cc2CC1=O	0[16.7 µM]

Env fusion inh, hit marks shown above.
SMILES	Env fusion inh
COc1cccc(S(=O)(=O)Nc2ccc3c(c2)[C@H]2C[C@H](CC(=O)NCc4ccc(Cl)cc4)O[C@@H](CO)[C@H]2O3)c1	57*[16.7 µM]
O=C(NC[C@@H]1CC[C@H]2[C@H](CN2Cc2cc(-c3ccccc3)on2)O1)c1ccc2c(c1)OCO2	58*[16.7 µM]

In the list so far, two have two or more sulfur atoms:
SMILES	Env fusion inh
C[C@H](CO)N1C[C@H](C)[C@H](CN(C)S(=O)(=O)c2cccs2)OCc2ccccc2-c2ccccc2C1=O	44[16.7 µM]
O=C(C(=O)N1CCC(CNS(=O)(=O)Cc2ccccc2)CC1)c1cccs1	-11

Next part
SMILES	Env fusion inh
O=C(C[C@@H]1CC[C@H](NC(=O)CC2CC2)[C@@H](CO)O1)NCc1ccc(Cl)cc1	18[16.7 µM]
COC(=O)c1c(CC[C@@H](CO)NC(=O)N[C@H](Cn2cc(-c3cncn3C)nn2)C(C)C)oc(C(C)=O)c1C(=O)OC	-3[16.7 µM]
CCOc1ccccc1C(=O)N1CCC[C@@H]1C(=O)N1CCC[C@H]1C(=O)NCc1ccccc1	-1
CCCCc1c(-c2ccccc2OC)ncn1Cc1ccccc1Cl	19
C/C=C/c1ccc([C@@H]2[C@@H](CO)N(C(=O)c3cnccn3)C23CN(C(=O)C2CC2)C3)cc1	-19[16.7 µM]
CO[C@@H]1CN(C)C(=O)c2ccc(NS(=O)(=O)c3ccc(Oc4ccccc4)cc3)cc2OC[C@@H](C)NC[C@@H]1C	56*[16.7 µM]
Cc1ccc(S(=O)(=O)N(C)C[C@H]2Oc3ccc(NC(=O)Nc4cccc5ccccc45)cc3C(=O)N([C@H](C)CO)C[C@H]2C)cc1	-1[16.7 µM]
COc1cc(-c2c(C(=O)c3ccccc3)[nH]c(N)c2C(=O)NCCc2c[nH]c3ccccc23)ccc1F	-31
COc1ccc2c3c(n(C)c2c1)[C@H](CO)N(Cc1ccccc1OC)CC31CCN(CC2CCOCC2)CC1	-12[16.7 µM]
C[C@@H]1CCCCO[C@@H](CN(C)Cc2ccncc2)[C@@H](C)CN([C@@H](C)CO)C(=O)c2cc(NC(=O)C3CCCCC3)ccc2O1	13[16.7 µM]
C[C@H]1CN([C@@H](C)CO)C(=O)Cc2cc(NC(=O)CCCCCC(=O)Nc3ccccc3N)ccc2O[C@@H]1CN(C)S(=O)(=O)c1ccc(Cl)cc1	-10[16.7 µM]
CO[C@@H]1CN(C)C(=O)c2cc(NC(=O)c3cc(C)on3)ccc2OC[C@@H](C)NC[C@H]1C	0[16.7 µM]

Screening results as filed in PubChem BioAssay.

Only part of the results is shown; rates above refer to the full screens.
